Mtb H37Rv: Mycobacterium tuberculosis H37Rv growth inhibition, putative kinase inhibitor library, confirmatory dose response (AID 2842); inhibition, % at 10 µg/mL; hits with a dose series show IC90 in µg/mL; 5.2% of 24,000 active; M. tuberculosis H37Rv growth inhibition; higher % means a stronger effect; some inactives read as strong as hits;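 active = confirmed in a dose series; about a fifth of its hits are not listed in these tables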;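 note: bacteria incubated one week before Alamar blue readout; 0% = bacteria only wells and 100% = bacteria with high antibiotic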
* marks the source's active call; other numbers are inactive results. Only part of the results is shown; rates above refer to the full screens.

mol,Mtb H37Rv
Cc1ccc(Cn2cc3c(-c4ccc5c(c4)OCO5)nnc-3c3cc4c(cc32)OCO4)cc1,8%
COc1ccc(NC(=O)CSc2nc(N)c(NC(=O)c3cccs3)c(=O)[nH]2)cc1,-18%
C=CCn1c(N2CCN(Cc3cccc(C)c3)CC2)nc2c1c(=O)[nH]c(=O)n2C,0%
COc1cccc(C(c2sc3nc(C)nn3c2O)N2CCOCC2)c1 (stereo not given),4%
CCOC(=O)c1nn(-c2ccc(OC)cc2)c(=O)c2c(NC(=O)C(C)(C)Oc3ccc(Cl)cc3)scc12,12%
COc1ccc(OC)c(NC(=O)c2oc3ccccc3c2NC(=O)c2ccc(F)cc2)c1,-2%
O=c1oc2ccccc2c(O)c1C=Nc1cccnc1,-17%
O=C(Nc1nc(-c2cccs2)cs1)c1ccc(S(=O)(=O)N2CCCCC2)cc1,6%
CN(C1CCCCC1)S(=O)(=O)c1ccc(C(=O)Nc2ccccc2C#N)cc1,6%
O=C(CSc1nnc2ccc(-c3ccco3)nn12)Nc1ccc2c(c1)OCCO2,-4%
OCCCc1nc2n(n1)C(c1cccc(Cl)c1)C=C(c1ccc(Br)cc1)N2 (stereo not given),80%
O=c1cnnc(N/N=C/c2cc(Br)ccc2O)[nH]1,<0.2µg/mL*
CCS(=O)(=O)c1cccc(C(=O)Nc2sc3c(c2C(N)=O)CCN(C(=O)OC)C3)c1,-5%
CCOc1ccc(C(=O)Nc2c(N)nc(SCc3cc(C)ccc3C)[nH]c2=O)cc1,-7%
CCOc1ccc2c(c1)O/C(=C\c1cccc(OC(=O)N3CCOCC3)c1)C2=O,-7%
Cc1n[nH]c(=O)nc1NC1CCCCC1,7%
COc1ccc(OC)c(NC(=O)c2oc3ccccc3c2NC(=O)CCCc2ccccc2)c1,-8%
CCOc1ccc(C(=O)Nc2nc(-c3ccccc3)c(C(C)=O)s2)cc1,10%
CCCn1c2c(=O)[nH]c(=O)n(C)c2n2c(-c3ccc(F)cc3)nnc12,-6%
Cc1cccc(-n2nnc3c(=O)n(CC(=O)N(C)c4ccccc4)cnc32)c1,1%
Cc1csc(NC(=O)CSc2[nH]c(=O)ncc2C)n1,-5%
O=c1[nH]c(O)c(N=Nc2ccc(OC(F)F)cc2)c(=O)[nH]1,-8%
O=C(CSc1nnc2ccc(-c3cccc([N+](=O)[O-])c3)nn12)Nc1nccs1,1%
O=C(O)c1ccccc1SC1CC(=O)N(c2ccccc2C(F)(F)F)C1=O (stereo not given),-8%
O=C(Oc1coc(CSc2ncccn2)cc1=O)c1cccc(Cl)c1,-16%
CCOc1ccc(-c2csc(NC(=O)c3cc(=O)c4ccccc4o3)n2)cc1,7%
O=C(Nc1nnc(-c2ccc(F)cc2)s1)c1cc(Cl)cc(Cl)c1,5%
O=C(Nc1ccccc1C(F)(F)F)c1cc2c(=O)n3ccccc3nc2s1,5%
Clc1ccc(-n2ncc3c(N4CCOCC4)ncnc32)cc1Cl,9%
CC(=O)Cc1nsc(NC(=O)c2cc3ccccc3o2)n1,-9%
CC(=O)Nc1cccc(NC(=O)CSc2nnc3[nH]c(=O)ccn23)c1,-8%
O=C(CSc1nc2[nH]ncc2c(=O)[nH]1)Nc1cc(C(F)(F)F)ccc1Cl,3%
COc1cccc(/C=N/Nc2nncc(=O)[nH]2)c1O,0.43µg/mL*
C=CCc1cccc2cc(C(=O)Nc3cc(C)ccc3C)c(=O)oc12,-7%
Cc1c(C)n2c(SCC(=O)NC3CCCCC3)nnc2[nH]c1=O,-14%
O=C(CSc1nnc2ccc(-c3cccc([N+](=O)[O-])c3)nn12)Nc1cccc(C(F)(F)F)c1,3.3µg/mL*
Cc1ccc(C)c2[nH]c(=O)c(CCNC(=O)C34CC5CC(CC(C5)C3)C4)cc12,8%
Cc1ccc2cc(CCNC(=O)C3CCCCC3)c(=O)[nH]c2c1C,-8%
COc1ccccc1-n1c(=O)[nH]c2c(C(N)=O)nc(-c3ccc(C(C)C)cc3)nc21,2%
CCOC(=O)c1nn(-c2ccc(OC)cc2)c(=O)c2c(NC(=O)c3cccc([N+](=O)[O-])c3C)scc12,-14%
c1csc(Nc2nc3cc4c(cc3s2)OCO4)n1,8.6µg/mL*
O=C(OCc1nc2ccccc2s1)c1coc2ccccc2c1=O,-2%
CCS(=O)(=O)c1ccccc1C(=O)Nc1sc2c(c1C#N)CCC(C)C2 (stereo not given),-11%
C(=N\Nc1ncnc2nc[nH]c12)/c1ccc(OCc2ccccc2)cc1,15%
O=c1ccn2c(SCc3ccccc3)nnc2[nH]1,-4%
CCOC(=O)C1CCN(S(=O)(=O)c2c[nH]c(=O)[nH]c2=O)CC1,-8%
O=C(Nc1ccc2c(c1)OCCO2)c1oc2ccccc2c1NC(=O)C1CCCC1,5%
COc1ccc(NC(=O)CSc2nc(N)c(NC(=O)c3ccc(F)c(F)c3)c(=O)[nH]2)cc1,-2%
O=C(Cc1ccccc1)Nc1c(C(=O)Nc2ccccc2)oc2ccccc12,5%
C/C(Cl)=C/CSc1nc2c(c(=O)[nH]c(=O)n2C)n1CC(O)COc1ccc(Cl)cc1 (stereo not given),15%
COc1ccccc1NC(=O)C1=C(C)NC(=O)NC1c1ccccc1Cl (stereo not given),0%
O=C(NCC1COc2ccccc2O1)c1cc2c(=O)n3ccccc3nc2s1 (stereo not given),-5%
Cn1c(=O)[nH]c(=O)c2c1nc(N1CCCC1)n2CCSc1nc2ccccc2s1,4%
CCOc1cccc2sc(Nc3nc4ccc(NC(C)=O)cc4s3)nc12,4%
O=C(NC(=S)Nc1nc(-c2ccccc2)c(-c2ccccc2)s1)c1ccccc1,19%
Cc1ccc(-c2nnc3ccc(SCC(=O)Nc4nc5ccc(C)cc5s4)nn23)cc1,-3%
Brc1ccc2nc(N/N=C/c3ccc4cccnc4c3)nc(-c3ccccc3)c2c1,12%
Cc1cc2c(=O)n(Cc3ccco3)c(SCC(=O)NCC3CCCO3)nc2s1 (stereo not given),4%
O=c1cc(CO)oc(C(Nc2cccc([N+](=O)[O-])c2)c2ccccn2)c1O (stereo not given),-12%
CCC(=O)N1N=C(c2c(-c3ccccc3)c3cc(Br)ccc3[nH]c2=O)CC1c1ccc(Br)cc1 (stereo not given),14%

Individual results from the results shown.
C/C(Cl)=C/CSc1nc2c(c(=O)[nH]c(=O)n2C)n1CC(O)COc1ccc(Cl)cc1 (stereo not given) – Mtb H37Rv: 15%
O=C(Cc1ccccc1)Nc1c(C(=O)Nc2ccccc2)oc2ccccc12 – Mtb H37Rv: 5%

Later entries
mol,Mtb H37Rv
COc1cc(/C=C\C(=O)NCCc2cc3ccc(C)c(C)c3[nH]c2=O)cc(OC)c1OC,-3%
CCOC(=O)c1nn(-c2ccc(Cl)cc2)c(=O)c2c(NC(=O)c3c(F)cccc3Cl)scc12,8%
COc1ccc(-n2c(=O)[nH]c3c(C(N)=O)nc(-c4ccc(Cl)cc4)nc32)cc1OC,-20%
CC(=O)c1cccc(NC(=O)C(C)N2C(=O)c3ccccc3S2(=O)=O)c1 (stereo not given),1%
COc1ccc(/C=C\C(=O)Nc2c(C(=O)Nc3ccccc3)oc3ccccc23)cc1OC,5%
COc1ccc2sc(NCc3ccccc3)nc2c1,11%
Cc1ccc(-c2nc(C(N)=O)c3[nH]c(=O)n(-c4ccc(F)cc4)c3n2)cc1,4%
N#Cc1c(NC(=O)c2ccccc2Oc2ccccc2)sc2c1CCN(Cc1ccccc1)C2,44%
O=C1CCc2cc(S(=O)(=O)Nc3ccccc3C(F)(F)F)cc3c2N1CC3,-10%
CS(=O)(=O)c1cccc(-c2nnc(NC(=O)c3ccc4c(c3)CCCC4)o2)c1,73%
Cc1cccc(NC(=O)CSc2nc3c(c(=O)n2-c2ccccc2)SCC3)c1C,10%
Cc1ccc(C)c2[nH]c(=O)c(CCNC(=O)C3c4ccccc4Oc4ccccc43)cc12,4%
CCC(=O)Nc1nc2ccc3nc(C)sc3c2s1,11%
CCN1C(=O)CC(Sc2ncccc2C(=O)O)C1=O (stereo not given),-2%
CC1CN(S(=O)(=O)c2ccc(C(=O)Nc3nc4ccc(Cl)cc4s3)cc2)CC(C)O1 (stereo not given),-27%
Cc1ccc2cc(CCNC(=O)Cc3ccccc3)c(=O)[nH]c2c1,-1%
CC1CC(C)CN(S(=O)(=O)c2ccc(C(=O)Nc3nc(-c4ccc(Cl)cc4)cs3)cc2)C1 (stereo not given),67%
Cc1ccccc1NC(=O)CSc1nnc(Cc2ccccc2)c(=O)[nH]1,-4%
COc1ccc(NC(=O)CSc2nc(-c3ccco3)nc3c2c(=O)n(C)c(=O)n3C)cc1,1%
COc1ccc(-c2csc3ncn(Cc4cccc(C)c4)c(=O)c23)cc1OC,13%
Cc1c(C)n2c(SCC(=O)NCc3ccccc3)nnc2[nH]c1=O,-2%
COc1ccc(NC(=O)Cn2cc(C(=O)c3ccc(F)cc3)c(=O)c3cc4c(cc32)OCCO4)cc1,-5%
Cc1cccc(C(=O)Nc2nc(-c3ccccc3)c(C(=O)c3ccccc3)s2)c1,73%
COc1ccc(C(=O)Nc2cccc(-c3cn4nc(OC)ccc4n3)c2)c(OC)c1,-3%
COc1ccc(Cc2nnc(NC(=O)c3ccccc3)s2)cc1,7%
O=C1N/C(=N\c2ccccn2)SC1Cc1ccc(Cl)cc1 (stereo not given),1%
CC(C)Cc1nnc(NC(=O)CCN2C(=O)c3ccccc3C2=O)s1,-13%
O=C(NNc1ncnc2ccccc12)c1ccc(O)cc1,-12%
CCOC(=O)c1ccc2nc(NC(=O)CN3C(=O)CCC3=O)sc2c1,1%
Cc1ccc(NC(=O)Cn2ccn(-c3ccc4c(c3)OCO4)c(=O)c2=O)cc1C,-20%
COC(=O)C1CCN(C(c2ccccc2F)c2sc3nc(C)nn3c2O)CC1 (stereo not given),-2%
O=C(CC1Sc2ccc(C(F)(F)F)cc2NC1=O)Nc1ccc(Cl)cc1 (stereo not given),12%
C=CCc1cccc2cc(C(=O)NNC(=O)c3ccc(C)cc3)c(=O)oc12,-5%
Cc1ccc(NC(=O)c2oc3ccccc3c2NC(=O)CC(c2ccccc2)c2ccccc2)cc1,17%
Cc1ccc(-c2nnc3c4cc5c(cc4n(Cc4cccc(F)c4)cc2-3)OCCO5)cc1C,3%
O=C(Nc1nnc(-c2ccc(Cl)cc2)s1)c1c(F)cccc1F,5%
CC1CCCCN1S(=O)(=O)c1ccc(C(=O)Nc2nc(-c3ccccc3)cs2)cc1 (stereo not given),29%
O=C(Nc1nnc(SCc2cccc(F)c2)s1)c1ccc(-c2ccccc2)cc1,6%
CCS(=O)(=O)c1cccc(C(=O)Nc2nnc(-c3cc(C)ccc3C)o2)c1,9.1µg/mL*
CCOc1ccc2nc(N3CCCCC3)sc2c1,81%

Part of the list above in order of formula weight, falling:
mol,Mtb H37Rv
N#Cc1c(NC(=O)c2ccccc2Oc2ccccc2)sc2c1CCN(Cc1ccccc1)C2,44%
COc1ccc(NC(=O)CSc2nc(-c3ccco3)nc3c2c(=O)n(C)c(=O)n3C)cc1,1%
Cc1ccc(Cn2cc3c(-c4ccc5c(c4)OCO5)nnc-3c3cc4c(cc32)OCO4)cc1,8%
O=C(CSc1nnc2ccc(-c3ccco3)nn12)Nc1ccc2c(c1)OCCO2,-4%
COc1ccc(C(=O)Nc2cccc(-c3cn4nc(OC)ccc4n3)c2)c(OC)c1,-3%
O=C1N/C(=N\c2ccccn2)SC1Cc1ccc(Cl)cc1 (stereo not given),1%
COc1cccc(/C=N/Nc2nncc(=O)[nH]2)c1O,0.43µg/mL*

(listing goes on)
mol,Mtb H37Rv
CC(=O)c1ccc(C(=O)Nc2nc(-c3ccc(C#N)cc3)cs2)cc1,-13%
CCc1ccc(-c2nnc3c4cc(OC)c(OC)cc4n(Cc4ccccc4)cc2-3)cc1,21%
Cc1nc2ccc3nc(NC(=O)c4cccc(Br)c4)sc3c2s1,6%
CCOC(=O)c1c(NC(=O)c2ccc(C#N)cc2)sc(Cc2ccc3c(c2)OCO3)c1C,2%
COc1ccc(C(=O)c2cn(Cc3cccc(C)c3)c3ccc(C)cc3c2=O)cc1,-1%
CC(O)Cn1c(NCCc2ccccc2)nc2c1c(=O)[nH]c(=O)n2C (stereo not given),-7%
CN1CC2=C(C1=O)C(c1ccccc1)NC(=O)N2 (stereo not given),-17%
COCCCn1c(C)c(C)n2c3c(=O)n(CCN4CCCCC4)c(=O)n(C)c3nc12,-14%
O=C(O)c1ccc(Nc2nc(-c3cccnc3)nc3ccccc23)cc1,5%
O=C(CN1C(=O)c2ccccc2C1=O)Nc1nc(-c2ccncc2)cs1,2%
CC(C)CNC(=O)CC1Nc2ccccc2NC1=O (stereo not given),4%
N#C/C(=C\c1ccc(OC(=O)c2ccc(Cl)s2)cc1)c1nc2ccccc2[nH]1,64%
Cn1c(=O)cc(N2CCN(C(c3ccccc3)c3ccccc3)CC2)[nH]c1=O,4%
CSc1nnc(Cc2cc(=O)[nH]c(=O)[nH]2)n1-c1ccccc1,-8%
Cc1cc(NC(=O)c2ccc(F)cc2)nc2c1c(=O)oc1ccccc12,-4%
Cn1c(=O)[nH]c(=O)c2c1nc(N1CCCCC1)n2CC(O)COc1ccccc1 (stereo not given),-3%

Screens deposited in PubChem by Southern Research Institute.
